eIF4H inh = human eIF4H binding inhibitors, primary screen, translation initiation inhibitor project, biochemical, uHTS, fluorescence polarization. Eukaryotic translation initiation factor 4H (Homo sapiens), Q15056. eIF4H fluorescence polarization binding assay. inhibition, % at 35 µM. 290,000 compounds, 0.94% hits. AID 2012, 2009;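 active = 50% or more with normal probe brightness, or confirmed in later tests; inconclusive = above 50% with abnormal brightness, or retests that disagree; inactive = below 50% or failed in later tests; about a fifth of its hits are not listed in these tables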;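 note: calls also rest on retests at 20 µM and on dose response follow-up; 0% = protein and probe with vehicle and 100% = probe without protein; strong numbers were not always called active; many hits fall short of the cut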
PABP FP inh = PABP poly(A) RNA binding inhibitors, primary screen, biochemical, fluorescence polarization, uHTS | Polyadenylate-binding protein 1 (Homo sapiens), P11940 | inhibition, % at 35 µM | 290,000 compounds, 1% hits | AID 2014, 2009;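 active = 50% or more with normal probe brightness, or confirmed in later tests; inconclusive = above 50% with abnormal brightness, or retests that disagree; inactive = below 50% or failed in later tests; about a fifth of its hits are not listed in these tables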;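 note: calls also rest on retests at 20 µM and on dose response follow-up; controls were probe without protein and protein plus probe with vehicle; some compounds called inactive have numbers as strong as hits; many hits fall short of the cut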
Target sequence (P11940 whole entry, looked up): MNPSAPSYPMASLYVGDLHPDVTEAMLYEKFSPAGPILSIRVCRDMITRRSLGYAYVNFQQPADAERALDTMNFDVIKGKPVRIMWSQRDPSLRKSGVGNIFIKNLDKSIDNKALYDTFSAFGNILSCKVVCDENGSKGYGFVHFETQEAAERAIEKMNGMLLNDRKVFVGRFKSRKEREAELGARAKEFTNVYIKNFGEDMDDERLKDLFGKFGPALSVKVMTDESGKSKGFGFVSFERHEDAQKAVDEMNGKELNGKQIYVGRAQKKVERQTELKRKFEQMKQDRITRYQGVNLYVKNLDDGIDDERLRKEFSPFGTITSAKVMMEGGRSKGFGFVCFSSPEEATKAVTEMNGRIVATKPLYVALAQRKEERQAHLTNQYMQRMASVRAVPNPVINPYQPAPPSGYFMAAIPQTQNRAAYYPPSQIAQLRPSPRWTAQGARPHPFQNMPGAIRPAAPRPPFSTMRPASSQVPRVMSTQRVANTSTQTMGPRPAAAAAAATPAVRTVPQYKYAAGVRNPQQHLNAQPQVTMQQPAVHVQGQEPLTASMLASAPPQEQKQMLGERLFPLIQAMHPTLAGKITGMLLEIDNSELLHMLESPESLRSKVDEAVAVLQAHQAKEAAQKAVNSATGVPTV
Rce1 inhib = yeast Rce1p protease inhibitors, primary screen, biochemical, fluorescence, cell-free homogeneous; yeast membranes, quenched prenylated peptide cleavage fluorescence; calls only; 290,000 compounds, 0.27% hits; AID 2563, 2010;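 active = fall in fluorescence gain of 50% or more versus controls, with final raw signal at or below 3038400; inconclusive = same 50% fall but final raw signal above 3038400; inactive = fall in fluorescence gain under 50%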;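 note: plate controls were neutral control wells for no effect and wells lacking membranes for full effect; tested at 10 µM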
Target sequence (Q03530 whole entry, looked up): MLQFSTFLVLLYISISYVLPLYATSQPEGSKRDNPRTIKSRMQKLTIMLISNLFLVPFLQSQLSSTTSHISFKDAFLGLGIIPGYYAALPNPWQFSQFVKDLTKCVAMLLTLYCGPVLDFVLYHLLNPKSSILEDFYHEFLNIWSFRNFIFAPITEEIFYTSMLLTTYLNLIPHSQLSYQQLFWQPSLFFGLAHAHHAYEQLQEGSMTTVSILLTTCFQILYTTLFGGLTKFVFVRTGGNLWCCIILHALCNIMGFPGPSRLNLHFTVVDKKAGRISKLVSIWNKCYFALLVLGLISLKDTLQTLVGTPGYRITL
Env fusion inh = inhibitors of HIV-1 Env-driven cell-cell fusion, primary screen, HeLa-JRFL effector, CEM21 target cells, luciferase; inhibition, % at 12.3 µM; AID 651610, 2012; 360,000 compounds, 1.1% hits;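 active = mean replicate inhibition score of at least 50 and every replicate individually at or above 50; inconclusive = only one of the two criteria met; inactive = mean below 50 and not all replicates reaching 50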;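 note: 0% = plate neutral controls and 100% = maraviroc near 300 nM; one replicate is shown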
Yeast UUG start = modulators of yeast start codon fidelity, primary screen, whole organism, S. cerevisiae, single point, plate reader | activity score, % at 18.7 µM | S. cerevisiae UUG-firefly luciferase reporter, luminescence/redox ratio | 350,000 compounds, 0.13% hits;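 active = replicate mean at a twofold rise or more, about +100% in these data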;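 note: firefly luciferase made from a UUG start codon reports start codon fidelity; reporter light over untreated wells divided by growth signal over untreated wells; some hits fall short of that in this replicate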
CSC inhib = cancer stem cell viability inhibitors, primary screen, luminescence. cancer stem cell-like cells viability. inhibition, % at 7.5 µM. 300,000 compounds, 1.1% hits. AID 2717, 2010;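 active = mean at 75% or more and at least half the replicates too; inconclusive = mean and replicates disagree; tested in HMLE shEcad cells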;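 note: 0% = median of negative and 100% = median of positive control wells; the first replicate is given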
MT1-MMP act inh = blockers of MT1-MMP proenzyme processing, primary screen, HT1080 RFP-PRO-GFP cells, GFP/RFP fluorescence. Matrix metalloproteinase-14 (Homo sapiens), P50281. GFP/RFP ratio fluorescence, overnight; percent of plate control window, DMSO zero. GFP/RFP ratio change, % at 20 µM. 360,000 compounds, 0.061% hits;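 active = GFP/RFP ratio change of at least 30% with cell ATP level not reduced by more than half and red fluorescence within 50% of control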; note: strong numbers were not always called active
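Material – HT1080 RFP-PRO-GFP cells · Control set – DMSO wells and RFP-L50D-GFP cells · Incubation – overnight cell settling, then overnight compound exposure, 37 °C, 5% CO2 · Compound dosing – single-point 20 µM compound, 1% DMSO · Read-out – GFP/RFP fluorescence ratio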
eIF4H inh retest = recorded beside eIF4H inh, whose call it bears; inhibition, %; compound at 20 µM; confirmation average;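 mean of two retest wells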
PABP FP inh retest = further read-out of PABP FP inh, marked with its call; inhibition, %; compound at 20 µM; confirmation repeats;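 mean of two retest wells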
MT1-MMP act inh RFP = second read-out of MT1-MMP act inh, no call of its own (marks repeat the call); RFP signal change, %; measured here: RFP expression control read;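 0 = vehicle wells; hits needed this value within 50% of zero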
* hit, by the source's call; i = inactive; ? = inconclusive; nt = no result given. Not all compounds are listed; count on the stated rates, not on these rows.

SMILES | eIF4H inh | PABP FP inh | Rce1 inhib | Env fusion inh | Yeast UUG start | CSC inhib | MT1-MMP act inh | MT1-MMP act inh RFP | others
COCc1ccc(C(=O)N(C)CC2CCCN(CCc3ccc(OC)cc3)C2)o1 (stereo not given) | -9.0 | 2.7 | i | -28.7 | 3.9 | 0.0 | -3.2 | 0.5
Cc1cccc(NC(=O)c2cc(N3CCOCC3)nc3ccccc23)c1 | -0.3 | 0.1 | i | nt | -22.3 | -12.8 | -2.8 | 0.4
CC1=CN(S(=O)(=O)c2ccc(C)cc2)C[C@@H]2[C@H]3CC[C@H](C3)[C@H]12 | nt | nt | nt | 8.6 | -11.3 | nt | -0.3 | -7.6
Cn1nc(C(F)(F)F)cc1C(=O)NC1CCCCCC1 | 2.8 | 7.9 | i | nt | -7.7 | -3.4 | 4.7 | 10.9
CCOc1ccc(-c2c(C(=O)N/N=C/c3ccc(C)s3)nnn2-c2nonc2N)cc1 | -6.0 | 5.8 | i | nt | -9.5 | 7.3 | 1.6 | 1.5
O=C(COC(=O)c1ccc(O)cc1)Nc1ccc(Cl)cc1 | -10.6 | 0.6 | i | -9.8 | nt | -10.3 | nt | nt
CC(=O)c1cc2c(cc1NC(=O)c1ccc(Cl)cc1)OCCO2 | -12.4 | 0.7 | i | 5.0 | -0.8 | 3.7 | -0.3 | 0.4
Cc1nn(Cc2ccccc2)c2c1C(c1cccc(Cl)c1)C(C#N)=C(N)O2 (stereo not given) | -8.5 | 0.4 | i | nt | -17.4 | 12.8 | 6.2 | -1.0
NS(=O)(=O)c1ccc(NC(=O)COC(=O)c2cnc(Cl)c(Cl)c2)cc1 | -3.1 | -1.6 | i | 8.9 | -13.1 | 4.5 | 10.1 | -1.4
Cc1ccc(NC(=O)c2ccc(S(=O)(=O)N3CCOCC3)cc2)c(C)c1 | -0.3 | 1.1 | i | 2.7 | -6.1 | -63.4 | 0.6 | 3.6
COC(=O)c1ccc(NC(=O)C(=O)NCC2CCCO2)cc1 (stereo not given) | -6.8 | -7.7 | i | -15.1 | nt | 3.5 | 3.8 | 3.5
O=[N+]([O-])c1ccc2nc(NS(=O)(=O)c3ccc(F)cc3)sc2c1 | -1.9 | 3.8 | i | 7.2 | nt | 9.8 | -4.4 | -2.3
Cc1ccc([N+](=O)[O-])cc1-c1ccc(/C=N\n2nnnc2N)o1 | 1.0 | -6.0 | i | 26.3 | nt | -3.1 | 5.1 | 6.2
CS(=O)(=O)N(CC(=O)NCc1ccccn1)Cc1ccc(Cl)cc1 | -4.2 | 4.0 | i | nt | -7.7 | 1.9 | 6.2 | 0.0
O=C(Nc1ccc2c(c1)OCCO2)c1ccc(Cl)cc1Cl | 2.6 | 4.0 | i | -165.4 | -45.2 | 4.5 | 12.0 | -3.3

Arranged by count of non-hydrogen atoms (low to high): part of the list above.
SMILES | eIF4H inh | PABP FP inh | Rce1 inhib | Env fusion inh | Yeast UUG start | CSC inhib | MT1-MMP act inh | MT1-MMP act inh RFP | others
COC(=O)c1ccc(NC(=O)C(=O)NCC2CCCO2)cc1 (stereo not given) | -6.8 | -7.7 | i | -15.1 | nt | 3.5 | 3.8 | 3.5
Cc1nn(Cc2ccccc2)c2c1C(c1cccc(Cl)c1)C(C#N)=C(N)O2 (stereo not given) | -8.5 | 0.4 | i | nt | -17.4 | 12.8 | 6.2 | -1.0
CCOc1ccc(-c2c(C(=O)N/N=C/c3ccc(C)s3)nnn2-c2nonc2N)cc1 | -6.0 | 5.8 | i | nt | -9.5 | 7.3 | 1.6 | 1.5

(next part)
SMILES | eIF4H inh | PABP FP inh | Rce1 inhib | Env fusion inh | Yeast UUG start | CSC inhib | MT1-MMP act inh | MT1-MMP act inh RFP | others
COc1ccc(C)cc1-n1ccn(CC(=O)Nc2ccc(Br)cc2F)c(=O)c1=O | nt | nt | i | 0.4 | -6.9 | -7.1 | -1.0 | -1.9
O=C(NCc1ccc(F)cc1)c1cc(C2CCCN(C(=O)c3ccccn3)C2)on1 (stereo not given) | nt | nt | nt | 27.8 | -6.4 | nt | -0.3 | 1.9
CN(CC(=O)Nc1cccc(F)c1)C(=O)c1ccc(OCc2ccccc2)cc1 | nt | nt | nt | -10.3 | -1.0 | nt | 1.4 | -21.1
O=C(Nc1ccccc1)Nc1ccc(F)cc1F | -1.6 | 3.6 | i | -7.3 | nt | 4.1 | -1.5 | -4.9
O=C(COC(=O)/C=C/c1ccc(F)cc1)Nc1ccc(S(=O)(=O)N2CCOCC2)cc1 | nt | nt | nt | 0.4 | -1.8 | -7.5 | 2.2 | 5.9
COc1ccc(-c2c(C#N)c(N)nc3sc(C(=O)c4ccccc4)c(N)c23)cc1 | 34.9 | -8.6 | i | ? | -31.5 | 31.4 | -36.6 | -17.0
O=C(O)C(Cc1c[nH]c2ccccc12)NS(=O)(=O)c1ccc(Br)cc1 (stereo not given) | -0.5 | 5.9 | i | -3.7 | -4.4 | -5.7 | -2.9 | -1.9
COc1ccc([C@H]2CC(=O)C=C(c3cc4ccccc4s3)C2)cc1 | nt | nt | nt | -32.8 | -4.0 | 40.8 | -1.2 | 0.3
O=C(NCc1n[nH]c(=S)n1-c1ccc(F)cc1)c1ccc(S(=O)(=O)N2CCCC2)cc1 | 10.2 | 6.1 | i | -47.5 | 18.5 | -6.5 | 4.1 | 3.9
CCc1ccc(OCC(=O)Nc2ncc3c(n2)CC(C)(C)CC3=O)cc1 | -14.1 | 3.7 | i | -29.1 | -8.5 | -11.9 | -1.0 | 1.7
O=C(NCCCN1CCOCC1)c1cc(-c2ccccc2)nc2ccccc12 | nt | nt | i | nt | -14.8 | 9.5 | 1.7 | 2.1
CCCn1cc(S(=O)(=O)c2ccccc2)c(=O)c2cc(OCC)ccc21 | -3.0 | -0.2 | i | 13.0 | 1.6 | -29.2 | 12.1 | -1.7
CC(NC(=O)c1ccc(NC(=O)c2ccco2)cc1)c1ccccc1 (stereo not given) | -2.3 | -13.5 | i | nt | -4.3 | 0.5 | 0.8 | 0.1
c1ccc(CN2CCN(c3cnc4ccccc4n3)CC2)cc1 | 3.7 | 7.6 | i | -32.7 | nt | nt | 1.9 | -1.4
Cc1nc(C(F)(F)F)ccc1C(=O)N1CCC1(C)C(=O)NS(=O)(=O)c1cccc(F)c1 (stereo not given) | nt | nt | nt | 14.3 | 4.9 | nt | 3.0 | 5.4
Cc1ccc(S(=O)(=O)Nc2ccc(Oc3cccnc3)nc2)cc1 | -7.7 | 12.7 | i | 12.1 | nt | -10.6 | 0.3 | -4.2
COC(=O)Cc1[nH]n(-c2nc3ccccc3s2)c(=O)c1C(C)=O | -5.3 | -6.2 | i | nt | -1.8 | 0.9 | 1.8 | 5.0
CCC(CC)NC(=O)/C=C/c1ccccc1Cl | 1.0 | 9.4 | i | -29.9 | nt | 11.7 | -5.4 | -2.2
CCC(=O)c1ccc(OCC(O)CN(CCc2ccccc2)Cc2ccccc2)cc1 (stereo not given) | -13.1 | 1.0 | i | nt | -4.7 | 16.7 | 4.7 | -8.3
O=c1[nH]c(CSc2nc3ccccc3s2)nc2cc(Cl)ccc12 | 1.8 | -5.8 | i | -10.3 | nt | 67.9 | nt | nt
CCN(CC)c1ccc(/C=C(\C#N)c2ccccn2)cc1 | 54.3 | -0.5 | i | nt | nt | 77.6* | -102.3 | -7.5 | eIF4H inh retest=-5.8;PABP FP inh retest=4.6
CCOc1cc(/C=N/n2cnnc2)ccc1OC(=O)c1cccc([N+](=O)[O-])c1 | 2.8 | 0.9 | i | nt | -12.6 | 5.1 | 4.1 | 6.5
Cc1ccc(S(=O)(=O)NCCc2nnc(SCc3cccnc3)n2C)cc1 | 1.5 | 2.5 | nt | 14.2 | -14.2 | 8.3 | -2.0 | -3.2
COc1ccc(-c2nc3cc(C)ccn3c2NCc2ccc3c(c2)OCO3)cc1 | -8.5 | -1.0 | i | -5.3 | nt | 2.4 | 2.1 | 0.5
O=C(N/N=C\c1ccccc1OCc1ccccc1)c1ccco1 | -8.7 | -0.3 | i | -3.1 | nt | -2.2 | 0.0 | -1.2
CN(C)CCN(C(=O)c1ccc2ccccc2c1)c1nc2cc3c(cc2s1)OCCO3 | -5.9 | 0.8 | i | -14.0 | 1.6 | -3.7 | 0.0 | -0.9
CN(C)c1ccc(C(=O)N2CCCC(CCC(=O)N3CCN(c4ccccn4)CC3)C2)cc1 (stereo not given) | -5.6 | 11.2 | i | -3.4 | -10.3 | 2.0 | 1.5 | -7.1
O=P(c1ccccc1)(c1ccccc1)c1cc(Br)cc(Br)c1OCCO | -3.6 | 7.1 | i | 24.2 | -15.0 | -13.4 | -1.8 | -3.3
CCOc1ccc(NC(=O)CSc2nc(=O)n(Cc3ccccn3)c3c2CCC3)cc1 | nt | nt | i | nt | 2.8 | -15.4 | 0.3 | 1.2
CN(C(=O)CSc1nnc(-c2cccc(F)c2)n1N)C1CCS(=O)(=O)C1 (stereo not given) | -10.2 | 6.7 | i | 9.1 | nt | -14.8 | 3.4 | 0.0
COc1ccc(C(C(=O)NC2CCCC2)N(CC2CCCO2)C(=O)Cc2cccs2)cc1OC (stereo not given) | -0.7 | -0.4 | i | -19.0 | nt | 9.3 | -2.1 | 2.2
CC(C)CSc1nc2c(c(=O)[nH]c(=O)n2C)n1CCc1ccccc1 | 1.7 | -2.5 | i | nt | -3.9 | -9.9 | 1.3 | -4.8
Cc1cccc(C(=O)NC(=S)NC(C)c2ccccc2)c1 (stereo not given) | nt | nt | i | 10.6 | -17.0 | -0.6 | 1.0 | 0.1
O=C(NCc1nnc(SCC(=O)N2CCCCCC2)o1)c1ccccc1F | -2.6 | 11.9 | i | 5.7 | -15.4 | -18.0 | 3.3 | 5.4
CCOC(=O)C1=C(COC(=O)c2cccc(Cl)c2)NC(=O)NC1C (stereo not given) | -2.5 | -10.6 | i | 5.1 | 9.7 | nt | -1.9 | 2.1
Cc1cccc(C)c1OCc1cc(C(=O)N(Cc2c(C)nn(C)c2C)C2CC2)no1 | -17.9 | -4.6 | i | 16.8 | 3.0 | 1.9 | 0.9 | -27.6
CCN(CC)CCCNc1nc(CN2CCOCC2)nc2sc3c(c12)CCC3 | -5.1 | -2.2 | i | -4.1 | nt | 0.4 | -6.7 | -3.0
CC/C(=C/c1sc2ccc(C)cc2[n+]1CCCS(=O)(=O)[O-])SC | -0.4 | -17.2 | i | -14.7 | nt | -7.5 | nt | nt
C(=NC12CN3CN(CN(C3)C1)C2)c1ccc2c(c1)OCO2 | -2.2 | -12.8 | i | 5.3 | -14.1 | -2.9 | -5.8 | 2.4
O=C(NCCS(=O)(=O)N1CCN(c2ccccc2)CC1)c1ccccc1F | nt | nt | i | -3.2 | nt | 4.0 | 1.7 | 1.7
COc1ccc(NC(=O)CCCC(=O)c2ccccc2)cc1OC | -10.6 | 5.1 | i | -4.2 | -6.6 | -14.3 | 5.6 | 6.0
O=C(OCc1cc(=O)n2ccsc2n1)c1ccccc1O | nt | nt | nt | -24.4 | -26.7 | -3.1 | -3.1 | 7.6

High-throughput results from PubChem BioAssay.
